# Screening data as filed in PubChem.
# LASV entry inh: qHTS for Inhibitors of binding or entry into cells for Lassa Virus | Lassa virus pseudotyped entry inhibition, cell-based qHTS; control for the full effect not named in the record; many of its hits are not listed in these tables | Potency, µM (doses to about 49.2 µM), without a hit: at the highest dose activity change, negative = inhibition, hits mostly inhibitors | 18,000 compounds, 4.1% hits; active = well fitted inhibition curve with a large enough effect; inconclusive = small, poorly fitted or top-dose-only effect; inactive = no such curve, though single readings can be large or run the other way; tested in HEK293 cells; note: luciferase read-out
# Marburg entry: qHTS for Inhibitors of binding or entry into cells for Marburg Virus; Potency, µM (doses to about 49.2 µM), for inactives: at the highest dose activity change, negative = inhibition, usual class: inhibitors; AID 720532, 2013; 18,000 compounds, 6.5% hits; Marburg virus pseudotype entry/binding inhibition, cell-based; control for the full effect not named in the record; many of its hits are not listed in these tables; active means well fitted inhibition curve with a large enough effect; inconclusive means small, poorly fitted or top-dose-only effect; inactive means no such curve, though single readings can be large or run the other way; tested in HEK293 cells; note: luciferase read-out
# * hit, by the source's call; ? = inconclusive; nt = no result given; & = joins results of further samples; [ ] = dose if it differs, or a comment. % is set by controls: 0 for no effect and ±100 for the full control effect; potency is the fitted concentration of half-maximal effect. The list is partial, so the mix of outcomes need not match the whole.
SMILES,LASV entry inh,Marburg entry
CN(C)Cc1ccccc1-c1cc(NC2CC2)ncn1,-19.0%,?
CCC(C(=O)NC(N)=O)c1ccccc1 (configuration not stated),6.0%,-5.3%
CC=CC(=O)C[C@H]1CC[C@@H](C)[C@@H](CCO)O1,0.0%[8.59 µM],32.9%[activator][8.59 µM]
Cc1nc(NCc2cccc3c2OCO3)sc1-c1ccn(CC2CCCN(C)C2)n1 (configuration not stated),-23.7%,?
COC(=O)C1=C[C@]2(c3ccccc3C[C@H](OC)[C@@H]2C)[C@H]2C=C[C@H]1C2,-22.8%[8.59 µM],8.3%[8.59 µM]
C=C1C2C[C@]3(C4CC5[C@@]6(C)CC[C@H](O)[C@@]5(C3CC2=O)C4[N+]([O-])(CC)C6)[C@@H]1O (some centres not stated),-5.2%,0.0%
CCc1cc2c(s1)-n1c(C)nnc1CN=C2c1ccccc1Cl,-23.9%,2.1%
C[C@@H]1CC[C@H]2[C@@H](C)C(=O)O[C@@H]3O[C@@]4(C)CC[C@@H]1[C@]32OO4,2.24µM*,1.78µM*
COC(=O)C[C@H]1c2ccccc2[C@@H]2C(=C[C@@H](C)[C@H]3C(=O)N(c4ccccc4)C(=O)[C@H]32)N1C(=O)OC,6.7%[8.59 µM],10.2%[8.59 µM]
CCCCN1C[C@H](C)[C@@H](CC(=O)NC)C1=O,16.0%,8.5%
COc1cc2c(cc1OC)[C@@]1(c3ccccc3)CCCC[C@H]1[C@@H]2NC(=O)C(F)(F)F,-13.2%[8.59 µM],-2.4%[8.59 µM]
C[N+]1(C)CCc2cc3c(cc2C1C1OC(=O)c2c1ccc1c2OCO1)OCO3 (configuration not stated),0.7%,0.8%
Cc1cc(C(=O)NCC2CCC3(CCN(Cc4ccc5ccccc5c4)CC3)O2)n(C)n1 (configuration not stated),-7.4%,-24.9%
CCN1C(=O)N[C@@H](c2cccc(C(F)(F)F)c2)[C@H](C(C)=O)[C@H]1C,nt,-16.4%[8.59 µM]
COc1cc2oc(=O)cc(-c3cccc(-c4ccc(C(C)=O)cc4)c3)c2c(OC)c1OC,?,4.2%
OC[C@]1(O)OC[C@@H](O)[C@H](O)[C@@H]1O,-13.9%,-5.0%
CCC1(C2CCN(C(=O)c3ccc(C)c(C)c3)CC2)NC(=O)N(CCc2scnc2C)C1=O (configuration not stated),33.0%[activator],-15.5%
COc1cc(/C=C/C(=O)c2cccs2)cc(OC)c1OC,31.6µM*,?
COc1ccc(CN2CCOc3c(cc(-c4ccc(OC)nn4)cc3OC)C2)c(O)c1,-20.7%,-18.7%
COCCN1C=C2C(=O)C(C)(OC(=O)C3CCCC3)C(=O)C(c3ccccc3)=C2C=C1CCCC(=O)OC (configuration not stated),13.4%[8.59 µM],3.2%[8.59 µM]
C=CCC(O)(C#Cc1ccccc1)c1ccccc1 (configuration not stated),-2.5%,4.0%
Cc1nc2c(OCc3ccccc3)cccn2c1CC#N,-10.4%,37.6%[activator]
COc1ccc2c(c1)CN(C)S(=O)(=O)c1ccccc1-2,14.1%,9.3%
CC1(OC(=O)c2ccco2)C(=O)C=C2C=C(c3ccc(C#N)cc3)OC=C2C1=O (configuration not stated),-2.2%,-4.1%
Cc1ccc(S(=O)(=O)N2CCC(=O)N(CCOCc3cccc(C(F)(F)F)c3)CC2)cc1,nt,9.9%
COc1c(C)c2c(c(O)c1C/C=C(\C)CCC(=O)OCCN1CCOCC1)C(=O)OC2,1.12µM*,1.12µM*
Cc1ccc(S(=O)(=O)N2CCC(=O)N([C@H](COCc3cccc(C)c3)Cc3ccccc3)CC2)cc1,?,?
C=C1C/C(=C\C)C(=O)O[C@@H]2CCN3CC=C(COC(=O)[C@@]1(C)O)[C@H]23,3.4%[17.8 µM],0.0%[17.8 µM]
OC(c1ccc2c(c1)CN(Cc1cccn1-c1cccnc1)CCO2)C1CCCCC1 (configuration not stated),?,-43.3%
O=C1CC[C@@H](C(=O)NCC2Cc3cc(Cl)cc(-c4ccc5[nH]ccc5c4)c3O2)N1 (some centres not stated),-14.9%,-17.0%
Cc1cccc(C(=O)N2CCOc3ccc(CN(C)Cc4cc(C5CC5)n[nH]4)cc3C2)n1,-7.5%,-3.2%
CC(C)[C@H](NC(=O)[C@H](CC(=O)O)NC(=O)[C@H](CCCCN)NC(=O)[C@@H](N)CCCN=C(N)N)C(=O)N[C@@H](Cc1ccc(O)cc1)C(=O)O,9.2%,3.1%
NC(=NC1C2CC3CC(C2)CC1C3)Nc1ccc(I)cc1 (configuration not stated),8.91µM*,11.2µM*
CCN(Cc1ccccc1)c1cc2c(c3c1ccn3C)C1CCC2O1 (configuration not stated),-26.2%,-11.9%
CC(=O)[C@@]1(O)[C@H](O)CC2C3CCC4CC(O)CC[C@]4(C)C3CC[C@@]21C (some centres not stated),-2.9%,23.9%
COc1ccccc1-c1nccc(-n2ccnc2)n1,-6.6%,?
CC(=O)N[C@@H](CSC/C=C(\C)CCC=C(C)C)C(=O)O,4.2%&-13.9%&-23.0%,17.1%&13.9%&-0.1%
CC(=O)OC1CC[C@@]2(C)C(CC[C@@]3(C)C2CC=C2C4CC(C)(C)CC[C@]4(C(=O)O)CC[C@@]23C)C1(C)C (some centres not stated),1.9%,0.5%
C=C[C@H]1CN2CCC1C[C@@H]2C(O)c1ccnc2ccccc12 (some centres not stated),11.4%,-1.4%
CCCN(CC)C(CC)C(=O)Nc1c(C)cccc1C (configuration not stated),-10.7%,14.6%
CC1=CC(=O)C2=C(C)C[C@H](O)[C@H]3[C@H](C)C(=O)O[C@@H]3C12 (some centres not stated),3.3%,-2.5%
CCN1CCCC1CNC(=O)c1cnn(-c2nccc(-c3ccco3)n2)c1C1CC1 (configuration not stated),-5.0%,8.5%
O=C(NCc1ccco1)O[C@@H]1C(=O)c2cc(Br)ccc2O[C@H]1c1ccc2c(c1)OCO2,-1.6%,1.3%
COc1cc(C(NC(=O)C(F)(F)F)c2cc3ccccc3o2)cc(OC)c1OC (configuration not stated),nt,4.6%&-3.7%[8.59 µM]
CCN1C(C)=C(C(=O)OC(C)C)C(c2ccccc2Cl)C(C(=O)O)=C1C(=O)O (configuration not stated),0.7%,11.4%
COC(=O)CC=C[C@@H](C)[C@H](NC(=O)OC)c1ccccc1Br,13.5%[8.59 µM],-28.9%[8.59 µM]
CN(C(=O)Cc1ccc(Cl)c(Cl)c1)[C@@H](CN1CCCC1)c1cccc(OCC(=O)O)c1,-12.3%,7.6%
O[C@H]1C[C@H](c2ccc(Cl)cc2)N(CC2CCCCC2)C[C@H]1n1cc(-c2ccc(F)cc2)nn1,-17.5%,-27.8%

# 4 consecutive entries out of the list so far, quoted:
SMILES,LASV entry inh,Marburg entry
C=C[C@H]1CN2CCC1C[C@@H]2C(O)c1ccnc2ccccc12 (some centres not stated),11.4%,-1.4%
CCCN(CC)C(CC)C(=O)Nc1c(C)cccc1C (configuration not stated),-10.7%,14.6%
CC1=CC(=O)C2=C(C)C[C@H](O)[C@H]3[C@H](C)C(=O)O[C@@H]3C12 (some centres not stated),3.3%,-2.5%
CCN1CCCC1CNC(=O)c1cnn(-c2nccc(-c3ccco3)n2)c1C1CC1 (configuration not stated),-5.0%,8.5%

# Next section.
SMILES,LASV entry inh,Marburg entry
CCc1cccc(N(C)C(N)=Nc2cccc3ccccc23)c1,?,28.2µM*
CC[n+]1c(-c2ccccc2)c2cc(N)ccc2c2ccc(N)cc21,?,8.91µM*
Cc1cccc(C)c1Nc1oc(-c2ccccc2)nc1-c1ccccc1,3.4%,1.1%
Oc1ccc(Cl)cc1,-4.3%&-7.5%,-16.3%&1.9%
Cc1cccc(C)c1N(CCCc1cccnc1)C(=O)C(C)N (configuration not stated),?,?
COCCN1C(=O)N[C@@H](CCc2ccccc2)[C@H](C(=O)OC)[C@H]1C,-11.7%[8.59 µM],2.6%[8.59 µM]
C=C1C(=O)[C@]23[C@H](O)[C@H]1CC[C@H]2[C@@]12COC3(O)[C@H](O)[C@@H]1C(C)(C)CC[C@@H]2O,?,17.8µM*
O=C(/C=C/C=C/c1ccc2c(c1)OCO2)N1CCCCC1,15.5%,38.9%[activator]
CCn1c(=O)n(C2=C(CO)CN(CC3CCCCCCC3)CC2)c2ccccc21,-18.7%,?
CC1(C)C=Cc2c(cc3occ(-c4ccc5c(c4)OCO5)c(=O)c3c2O)O1,56.9%[activator],28.3%
O=C(O)CN(CC(=O)O)CC1=CC2C(=CC1=O)Oc1cc(O)c(CN(CC(=O)O)CC(=O)O)cc1C21OC(=O)c2ccccc21 (configuration not stated),9.4%,-12.5%
NC(N)=NCc1cccc(I)c1,-14.9%&-8.1%,4.1%&-10.8%
CSCC[C@H](NC(=O)[C@H](Cc1ccccc1)NC(=O)[C@H](Cc1cnc[nH]1)NC(=O)CNC(=O)[C@@H](NC(=O)[C@H](C)NC(=O)[C@H](Cc1c[nH]c2ccccc12)NC(=O)[C@H](CCC(N)=O)NC(=O)[C@@H]1CCCN1C(=O)[C@@H](NC(=O)[C@@H]1CCC(=O)N1)C(C)C)C(C)C)C(N)=O,0.1%,21.3%
CN1CC(=O)N2[C@H](c3ccc4c(c3)OCO4)c3[nH]c4ccccc4c3C[C@@H]2C1=O,-8.0%,0.3%
COc1ccc(OC)c(-c2cc(Cl)c3c(c2)CC(CNC(=O)[C@@H]2CCCN2C(C)=O)O3)c1 (some centres not stated),-17.3%,-21.7%
C[C@H]1CCC/C=C/[C@@H]2C[C@H](O)C[C@H]2[C@H](O)/C=C/C(=O)O1,1.12µM*,1.12µM*
COc1cc(C(=O)N2CCOCC2)cc(OC)c1OC,-18.9%&-2.6%,2.2%&2.1%
OCC1OC(n2cnc3c(NCc4ccco4)ncnc32)C(O)C1O (configuration not stated),?,?
O=C(c1cccs1)N1C[C@@H](O)[C@@H](n2cc(C3CC3)nn2)C[C@@H]1c1ccccc1,12.7%,-20.8%
C[C@H]1N[S+](=O)([O-])c2cc(Cl)ccc2O[C@H]1c1ccccc1,29.3%,22.8%
COc1ccn(C)c(=O)c1C#N,-2.2%,-8.7%
CC(C)Cn1nnnc1S(=O)(=O)Cc1ccccc1,4.8%,1.5%
O=C(NCCNC[C@@H](O)COc1ccc(O)cc1)N1CCOCC1,0.4%,12.6%
OC[C@H]1O[C@@H](Oc2ccc(O)cc2)[C@H](O)[C@@H](O)[C@@H]1O,7.6%,15.1%
CC(C)C[C@@H](CC(=O)N[C@H](CC(=O)N[C@@H]1CCCC[C@H]1C(=O)N[C@H](CC(=O)N[C@@H](CCC(=O)O)CC(=O)O)Cc1ccccc1)C(C)C)NC(=O)[C@@H]1CCCC[C@H]1N,-5.8%,3.7%
CCOC(=O)CN1C(=O)NC(c2cccc(F)c2)C(C(=O)OC)=C1C (configuration not stated),-16.2%[8.59 µM],-23.8%[8.59 µM]
Nc1ncnc2c1ncn2[C@@H]1O[C@H](COP(=O)(O)OP(=O)(O)OP(=O)(O)OP(=O)(O)OC[C@@H]2O[C@H](n3cnc4c(N)ncnc43)[C@@H](O)[C@H]2O)[C@@H](O)[C@H]1O,0.3%,13.3%
CC(=O)Nc1ccccc1-c1nc(CNC(=O)c2ccc(Cl)cc2)c(C)o1,-5.3%,12.0%
CCCCCC[C@H]1C(=O)O[C@H](C)[C@H](NC(=O)c2cccc(NC=O)c2O)C(=O)O[C@@H](C)[C@H]1OC(=O)CC(C)C,?,?
CC(=O)OC1CC2C(C)(C)C(=O)C=C[C@]2(C)C2CC[C@@]3(C)C(c4ccoc4)OC(=O)C4O[C@@]43[C@]12C (some centres not stated),-25.9%,?
CC(=O)c1ccc(OCc2cn(CC(=O)c3ccc(O)cc3)nn2)cc1,-12.2%,19.0%
CCCCCCCC/C=C\CCCCCCCC(=O)OC[C@@H](O)COP(=O)(O)O,-12.6%&1.9%,20.9%&0.3%
CCCCN1CC(N2CCN(C(=O)c3ccco3)CC2)CS1(=O)=O (configuration not stated),11.4%,?
Cn1nccc1C(=O)NCC1CCC2(CCN(Cc3cccc4ncccc34)CC2)O1 (configuration not stated),-0.2%,-6.0%
COC(=O)CC1C(C)(C)C(=O)C2CC3=C(CC[C@]4(C)C3=CC(=O)OC4c3ccoc3)[C@@]1(C)C2=O (some centres not stated),?,-9.2%
O=C1CC(c2ccc(O[C@@H]3OC(CO)[C@@H](O)C(O)C3O)cc2)Oc2cc(O)ccc21 (some centres not stated),-12.9%,24.0%
CC(C)(CO)NC(=O)c1cnn(-c2ncc3c(n2)-c2ccccc2CC3)c1C1CC1,14.0%,-8.6%

# Shown as tab-separated lines: part of the list above
Compound	LASV entry inh	Marburg entry
CC(C)C[C@@H](CC(=O)N[C@H](CC(=O)N[C@@H]1CCCC[C@H]1C(=O)N[C@H](CC(=O)N[C@@H](CCC(=O)O)CC(=O)O)Cc1ccccc1)C(C)C)NC(=O)[C@@H]1CCCC[C@H]1N	-5.8%	3.7%
CCOC(=O)CN1C(=O)NC(c2cccc(F)c2)C(C(=O)OC)=C1C (configuration not stated)	-16.2%[8.59 µM]	-23.8%[8.59 µM]
Nc1ncnc2c1ncn2[C@@H]1O[C@H](COP(=O)(O)OP(=O)(O)OP(=O)(O)OP(=O)(O)OC[C@@H]2O[C@H](n3cnc4c(N)ncnc43)[C@@H](O)[C@H]2O)[C@@H](O)[C@H]1O	0.3%	13.3%
CC(=O)Nc1ccccc1-c1nc(CNC(=O)c2ccc(Cl)cc2)c(C)o1	-5.3%	12.0%
CCCCCC[C@H]1C(=O)O[C@H](C)[C@H](NC(=O)c2cccc(NC=O)c2O)C(=O)O[C@@H](C)[C@H]1OC(=O)CC(C)C	?	?
